Screening data: PubChem BioAssay, National Center for Advancing Translational Sciences (NCATS)
VDR inhibitor = Inhibitors of the vitamin D receptor (VDR): qHTS. Vitamin D3 receptor (Homo sapiens), P11473. VDR-SRC2-3 peptide fluorescence polarization, 2 h. Potency, µM, inactives show max response, negative = inhibition, most hits filed as inhibitors. 400,000 compounds, 0.93% hits; active = well fitted inhibition curve with a large enough effect; inconclusive = small, poorly fitted or top-dose-only effect, or another doubt; inactive = no such curve, though single readings can be large or run the other way; also: series mostly up to about 120 µM
Target sequence (P11473 whole entry, looked up): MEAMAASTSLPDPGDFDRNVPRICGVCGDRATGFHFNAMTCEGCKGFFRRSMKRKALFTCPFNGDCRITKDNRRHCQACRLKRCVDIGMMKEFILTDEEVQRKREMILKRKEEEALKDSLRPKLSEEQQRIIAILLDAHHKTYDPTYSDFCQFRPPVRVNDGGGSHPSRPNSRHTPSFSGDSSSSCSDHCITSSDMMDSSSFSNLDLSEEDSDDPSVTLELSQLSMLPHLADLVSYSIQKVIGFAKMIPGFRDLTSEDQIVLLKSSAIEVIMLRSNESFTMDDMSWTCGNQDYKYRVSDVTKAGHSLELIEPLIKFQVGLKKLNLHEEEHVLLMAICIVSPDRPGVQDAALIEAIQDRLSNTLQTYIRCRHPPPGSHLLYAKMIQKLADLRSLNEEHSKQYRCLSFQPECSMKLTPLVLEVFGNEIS
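Compounds are added to VDR with labelled SRC2-3 coactivator peptide and held 2 h at room temperature. Inhibition of the VDR–peptide interaction is then read as a change in fluorescence polarization.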
An asterisk follows results filed as active; & = joins results of further samples; [ ] = another dose, or the depositor's remark. % is scaled to controls: 0 for no effect and ±100 for the full control effect; potency is read from the fitted curve at half-maximal effect. Only part of the results is shown; the hit share may differ from the screen's.

`COc1ccc(Cc2nnc(SCC(=O)c3ccc4c(c3)NC(=O)CO4)o2)cc1` gave VDR inhibitor -10%.
`NC(=O)CC(NC(=O)c1ccccc1)c1ccc(NC2CCCCCCC2)c([N+](=O)[O-])c1` (centres undefined) gave VDR inhibitor -4%.
Screening COc1ccc(-c2ccc(SCc3cccnc3)nn2)cc1OC returned VDR inhibitor -10%.
Screening COc1ccc(-c2nnn(CC(=O)N(CCCO)C(C(=O)NC3CCCC3)c3ccncc3)n2)cc1 (centres undefined) returned VDR inhibitor 0%.
For O=C(CC(NC(=O)OCc1ccccc1)C(=O)O)OCc1ccccc1 (centres undefined) the results were VDR inhibitor -5%.
`COc1ccc(C(c2c(C)[nH]n(-c3ccccc3)c2=O)c2c(C)[nH]n(-c3ccccc3)c2=O)cc1OC` gave VDR inhibitor -8%.
COc1ccc(CN(C)S(=O)(=O)c2c(C)noc2C)cc1OC was read as VDR inhibitor -3%.
For COc1n[nH]c2nncnc12 the results were VDR inhibitor 3%.
For O=C(O)c1ccc(CNC(=O)c2ccc3c(c2)C(=O)N(Cc2cccnc2)C3=O)cc1 the results were VDR inhibitor 9%.
Cc1ccc(Nc2c3c(nc4ncnn24)CCC3)cc1 was read as VDR inhibitor 13%.
CC(C)(C)OC(=O)C[C@@H]1C/C=C\C[C@@H](CC(=O)N[C@H](CO)Cc2ccccc2)C(=O)N2CCC[C@@H]2COC1=O was read as VDR inhibitor 5%.
`O=C(NCc1ccc(Cl)cc1)c1nccnc1CO` gave VDR inhibitor 2%.
COc1ccc(S(=O)(=O)Nc2nc(C(F)(F)F)cs2)cc1 was read as VDR inhibitor 0%.
For CCCC(C(=O)NC(C)(C)C)N(CCN1CCOCC1)C(=O)CNS(=O)(=O)c1ccccc1 (centres undefined) the results were VDR inhibitor 7%.
O=C(c1ccc(S(=O)(=O)c2ccccc2Cl)c([N+](=O)[O-])c1)N1CCN(Cc2ccccc2)CC1 was read as VDR inhibitor -9%.
Screening CN(c1ccccc1C(=O)Nc1cccc(Br)c1)S(=O)(=O)c1ccccc1 returned VDR inhibitor 31%[activator].
For Cc1cc(C)c(C#N)c(Sc2ccc(N)cc2)n1 the results were VDR inhibitor -17%.
Screening CN1CCN(C(=O)c2cc(-c3ccccc3)on2)CC1 returned VDR inhibitor -9%.
`CCCC(=O)c1c(C)c2ccccc2n1C` gave VDR inhibitor -13%.
For Nc1ncnc2c1ncn2[C@@H]1O[C@H](CNCc2ccc(-n3cccn3)cc2)[C@@H](O)[C@H]1O the results were VDR inhibitor -9%.
Screening COC(=O)CSc1nc2cc(C)cc(C)c2cc1C#N returned VDR inhibitor 6%.
Screening Cc1c(C(=O)N2CCC(C)CC2)c(S(=O)(=O)N(Cc2ccccc2)C(C)(C)C)c(C)n1C returned VDR inhibitor 12%.
`O=S(=O)(CCNCc1ccccc1)NC1CCCCC1` gave VDR inhibitor -12%.
Screening c1ccc2c(-c3nnc4n3CCCCC4)cc(-c3ccncc3)nc2c1 returned VDR inhibitor 1%.
For OCC[C@H]1C[C@@H](O)[C@H](O)[C@@]2(OCc3ccccc32)O1 the results were VDR inhibitor 1%.
For CCCCc1ccc(NC(=O)c2ccc(N(C)S(C)(=O)=O)cc2)cc1 the results were VDR inhibitor 32%[activator].
`CC(C)C(NS(=O)(=O)c1ccc2c(c1)oc(=O)n2C)C(=O)N1CCN(Cc2ccccc2)CC1` (centres undefined) gave VDR inhibitor -11%.
Screening CC(C)NS(=O)(=O)c1ccc(NC(=O)Cc2cccs2)cc1 returned VDR inhibitor -2%.
`COc1ccc(CCNC(=O)c2ccc(CN3CCC(Cc4ccccc4)CC3)cc2)cc1OC` gave VDR inhibitor 28%.
`Cn1c(=O)c2c(nc(CN3CCN(C(c4ccccc4)c4ccccc4)CC3)n2CCCO)n(C)c1=O` gave VDR inhibitor -3%.
`CCOc1cc(/C=C(/C#N)c2ccc(Cl)cc2)cc(Cl)c1OCC(=O)O` gave VDR inhibitor -23%.
`CCN(CC)CCN(CC(=O)N(C1CCCCC1)C1CCCCC1)C(=O)c1cccnc1` gave VDR inhibitor 11%.
CSCC[C@H](NC(=O)c1cccs1)c1nnc2ccccn12 was read as VDR inhibitor -2%.
Screening NC(=O)Nc1n[nH]c(-c2ccccc2)n1 returned VDR inhibitor 4%.
`COc1ccccc1CNC(=O)C(=O)NCC(c1ccco1)S(=O)(=O)c1ccc(C)cc1` (centres undefined) gave VDR inhibitor 3%.
For COc1cccc(Nc2sc(C(=O)c3ccc4c(c3)OCO4)c(N)c2S(=O)(=O)c2ccccc2)c1 the results were VDR inhibitor 13%.
For Cc1ccc(-c2ccc(/C=C3/NC(=O)NC3=O)o2)cc1[N+](=O)[O-] the results were VDR inhibitor 8%.
COc1ccc([C@H]2CC(=O)C=C(c3cc(C)ccc3F)C2)cc1 was read as VDR inhibitor -16%.
Screening CCN(Cc1ccccc1)S(=O)(=O)c1ccc2c(c1)CCCN2C(C)=O returned VDR inhibitor 3%.
`Cc1ccc(CSC2=Nc3ccccc3C3=NC(=O)CN23)cc1` gave VDR inhibitor 11%.

Overlap with the part before: two compounds, followed by the next part.
Screening CCN(Cc1ccccc1)S(=O)(=O)c1ccc2c(c1)CCCN2C(C)=O returned VDR inhibitor 3%.
`Cc1ccc(CSC2=Nc3ccccc3C3=NC(=O)CN23)cc1` gave VDR inhibitor 11%.
Cc1cc(N2CCCC2)ccc1/C=C1\NC(=S)N(C)C1=O was read as VDR inhibitor inconclusive.
For CCOc1ccc(OCC)c(Nc2cc(C)nc3ncnn23)c1 the results were VDR inhibitor 5%.
CC(C)(C)OC(=O)[C@H](Cc1ccccc1)NC(=O)c1nc[nH]c1C(=O)N1CCNCC1 was read as VDR inhibitor 2%.
Screening CCOC(=O)N1N=C(c2ccc(OC)cc2)CC1(O)C(F)(F)F (centres undefined) returned VDR inhibitor -4%.
O=C(CSC1=NCCS1)Nc1nc(-c2ccccc2)cs1 was read as VDR inhibitor -19%.
Screening Cn1c(=O)c2c(nc(CN3CCOCC3)n2Cc2ccccc2)n(C)c1=O returned VDR inhibitor -6%.
`S=C(NCCCc1ccccc1)Nc1ccc(Br)cc1` gave VDR inhibitor 6%.
Screening CCOc1ccccc1CNC(=O)c1ccc(N2Cc3ccccc3Oc3ncccc32)s1 returned VDR inhibitor 10%.
CC(C)c1ccc2[nH]c3nc(SCC(=O)NC4CC4)nnc3c2c1 was read as VDR inhibitor -4%.
Cc1nc(N)sc1N=Nc1c(C)n(C)n(-c2ccccc2)c1=O was read as VDR inhibitor -13%.

Brought forward from above: 4 compounds, then new ones.
`S=C(NCCCc1ccccc1)Nc1ccc(Br)cc1` gave VDR inhibitor 6%.
Screening CCOc1ccccc1CNC(=O)c1ccc(N2Cc3ccccc3Oc3ncccc32)s1 returned VDR inhibitor 10%.
CC(C)c1ccc2[nH]c3nc(SCC(=O)NC4CC4)nnc3c2c1 was read as VDR inhibitor -4%.
Cc1nc(N)sc1N=Nc1c(C)n(C)n(-c2ccccc2)c1=O was read as VDR inhibitor -13%.
Screening CCOC(=O)c1c(-c2ccccc2)oc2ccc(OCC(O)CN(C)C)cc12 (centres undefined) returned VDR inhibitor 13%.
`CCOc1ccc(NC(=O)Cn2c(=O)n(-c3cccc(OC)c3)c(=O)c3c4c(sc32)CCCC4)cc1` gave VDR inhibitor 0%.
For Cc1ccccc1C(=O)N1CCN(c2ccc(N3CCOCC3)nn2)CC1 the results were VDR inhibitor 5%.
Cc1cccc(OCC(=O)OC(C)C(=O)Nc2ccc(Cl)cn2)c1 (centres undefined) was read as VDR inhibitor 16%.
NCCCn1c(C(=O)c2cc(Cl)c(N)c(Cl)c2)c2ccccc2[n+]1[O-] was read as VDR inhibitor 1%.
`CCOc1ccc(NC(=O)CSc2nnc(Cc3cccn3C)n2-c2ccc(F)cc2)cc1` gave VDR inhibitor -11%.
For O=c1[nH]c(SCCOc2ccccc2)nc2ccccc12 the results were VDR inhibitor 11%.
For CC(C#CCN1CCCCC1)OCCOCc1ccccc1 (centres undefined) the results were VDR inhibitor -8%.
`CCn1c(=Nc2ccc(N3CCOCC3)cc2)ccc2ccccc21` gave VDR inhibitor 15%.
For Cc1ccc(Sc2cnn(-c3ccccc3)c(=O)c2Cl)cc1 the results were VDR inhibitor 2%.
For COc1ccc(-c2cc(N3CCCC3)n3ncnc3n2)cc1 the results were VDR inhibitor 4%.
CS(=O)(=O)N1CCN(c2ccccc2NC(=O)c2cccs2)CC1 was read as VDR inhibitor -4%.
For CCCCOc1ccc(C(=O)NCC(=O)NCC(c2ccc(F)cc2)N2CCOCC2)cc1 (centres undefined) the results were VDR inhibitor 0%.
For CCC(C)(C(=O)NC1CCCC1)N(C(=O)c1ccccn1)c1ccccc1 (centres undefined) the results were VDR inhibitor -6%.
OCC1(Cc2ccc(Cl)cc2)CCN(Cc2ccc3nsnc3c2)CC1 was read as VDR inhibitor 1%.
COc1ccccc1C(CNC(=O)c1cccc(S(=O)(=O)N2CCCc3ccccc32)c1)N(C)C (centres undefined) was read as VDR inhibitor -7%.
`COc1ccc(Cl)cc1NC(=S)NCCO` gave VDR inhibitor 0%.
`COc1cc(/C=N/NC(=O)c2cc(-c3ccc4c(c3)OCO4)n[nH]2)ccc1O` gave VDR inhibitor -2%.
For O=C(CSc1nnc(-c2cccs2)o1)Oc1ccc(Cl)cc1 the results were VDR inhibitor 16%.
For COC(=O)Cc1ccc(NC(=S)N2CCN(c3ccc(F)cc3)CC2)cc1 the results were VDR inhibitor -7%.
`CCOC(=O)c1[nH]c(C)c(CCC(=O)NCc2ccc(OCC)cc2)c1C` gave VDR inhibitor 11%.
Screening CCCN(C(=O)COC(=O)CSc1ccc(C(N)=O)cc1[N+](=O)[O-])C1CCS(=O)(=O)C1 (centres undefined) returned VDR inhibitor 16%.
For O=C(CNC(=O)C1CCCCC1)NCc1ccco1 the results were VDR inhibitor 0%.
Screening O=S(=O)(O)c1cc(O)c(N=Nc2ccc(O)cc2O)c2ccccc12 returned VDR inhibitor 52%[activator].
`CNC(=S)N(Cc1ccc(OC)cc1)Cc1cc2cccc(C)c2[nH]c1=O` gave VDR inhibitor inconclusive.
For CCn1c(CNc2ccccc2Cl)nnc1SCC(=O)NCc1ccccc1 the results were VDR inhibitor -8%.
For CC(=O)Oc1ccc(N(c2ccccc2)S(=O)(=O)c2ccc(C)cc2)cc1 the results were VDR inhibitor -15%.
Screening CCC(=O)OCc1cc(=O)oc2ccc3ccccc3c12 returned VDR inhibitor -4%.
`Cc1ccc(C(=O)NC(c2ccccc2)C(Cl)Cl)cc1` (centres undefined) gave VDR inhibitor -9%.
COc1ccccc1C1Nc2cccc3cccc(c23)N1 was read as VDR inhibitor -10%.

Structures shown so far that contain a CF3 group, in the order listed:
COc1ccc(S(=O)(=O)Nc2nc(C(F)(F)F)cs2)cc1 was read as VDR inhibitor 0%.
Screening CCOC(=O)N1N=C(c2ccc(OC)cc2)CC1(O)C(F)(F)F (centres undefined) returned VDR inhibitor -4%.

Following part:
Screening COC(=O)c1cc(S(=O)(=O)N2CCOCC2)ccc1Sc1ccccc1N returned VDR inhibitor 6%.
CC(/C=N/Nc1nc(C)cc(=O)[nH]1)=C\c1ccccc1 was read as VDR inhibitor -4%.
For COc1ccc(C(=O)N/N=C/c2ccc(OC)c(CN3CCc4cc(OC)c(OC)cc4C3C)c2)cc1 (centres undefined) the results were VDR inhibitor 16%.
C=CCn1c(SCC(=O)c2ccc(Cl)cc2)nnc1-c1ccc2c(c1)OCO2 was read as VDR inhibitor -18%.
`CC(=O)Oc1ccc(N(C(C)=O)S(=O)(=O)c2ccc3ccccc3c2)cc1` gave VDR inhibitor -8%.
COc1cc(NC(=O)C2CCN(S(=O)(=O)c3ccc(Cl)cc3)CC2)ccc1-n1cnnn1 was read as VDR inhibitor 8%.
For CSc1ccc(S(=O)(=O)NC2CC3CCC2C3)cc1 (centres undefined) the results were VDR inhibitor 3%.
`CC(C)CCc1c(O)nc(SCC(C)C)[nH]c1=O` gave VDR inhibitor -5%.
For Cc1cc(N2CCOCC2)nc2ccc(NC(=S)N3CCN(Cc4ccccc4)CC3)cc12 the results were VDR inhibitor -7%.
`OCCNc1nc(SCc2ccccc2)nc2sc3c(c12)CCC3` gave VDR inhibitor -20%.
`COc1ccccc1/C=C1\N=C(C(C)(C)C)OC1=O` gave VDR inhibitor 3%.
`Cc1cccc(CSCCNC(=O)c2ccc(N(C)S(=O)(=O)c3ccccc3)cc2)c1` gave VDR inhibitor 6%.
CCOC(=O)C1CCN(C(=O)CCc2c(C)nc3c(-c4ccc(F)cc4)c(C)nn3c2C)CC1 was read as VDR inhibitor 6%.
Screening Cc1ccc(-c2c[n+](CC(=O)Nc3ccccc3C)c3n2CCC3)cc1 returned VDR inhibitor 11%.
Cc1ccc([N+](=O)[O-])cc1NC(=S)NC(=O)C(C)(C)C was read as VDR inhibitor -18%.
CN1CCc2cc(O)c(O)cc2C(c2ccccc2)C1 (centres undefined) was read as VDR inhibitor -1%&-5%.
Screening CCN(CC)C(=O)CSc1nc(O)cc(=O)n1C returned VDR inhibitor 7%.
Screening CCN(C(=O)COC(=O)c1ccccc1Cc1ccccc1)c1c(N)n(Cc2ccccc2)c(=O)[nH]c1=O returned VDR inhibitor -11%.
CCOc1ccc(NS(=O)(=O)c2cc(C)c(C)cc2C)cc1 was read as VDR inhibitor 6%.
For CN(C)C1(CNC(=O)c2cccc(S(=O)(=O)Nc3ccc(Br)cc3)c2)CCCCC1 the results were VDR inhibitor 1%.
`Nc1cc(-c2nc3ncccc3o2)ccc1Cl` gave VDR inhibitor -16%.
O=C(O)[C@H]1CN(C/C=C/P(=O)(O)O)CCN1 was read as VDR inhibitor 4%.
`O=[N+]([O-])c1ccc(Cl)c(CN2CCN(c3ncccn3)CC2)c1` gave VDR inhibitor 11%.
Screening CS(=O)(=O)N1CCCC(C(=O)Nc2ccccc2Cl)C1 (centres undefined) returned VDR inhibitor 4%.
For Cc1nc2ccccc2n1S(=O)(=O)c1cc(C(=O)O)ccc1Cl the results were VDR inhibitor -2%.
